Anaer choline gr – inhibitors of anaerobic choline-dependent gram-negative bacterial growth | Gram-negative bacterium anaerobic choline minimal medium, absorbance growth; stronger effect = lower value; many inactives read as strong as hits in the columns shown | calls only | 55,000 compounds, 0.2% hits | AID 1963822;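 active means growth z-score on choline under -2 at 7 or 20 h with little or no fall on glycerol, limits in tiers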;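 further: stock transfer was 300 nL into about 50 µL; the organism is E. coli; final concentration not given here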
Anaer choline gr early – second read-out of Anaer choline gr, no call of its own (marks repeat the call); z-score; measured here: choline growth z-score, timepoint 1;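 score of optical density at 7 h as mean of two plates; lower means less growth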
The depositor's hits bear a star; i = inactive; & = joins results of further samples.

Structure,Anaer choline gr,Anaer choline gr early
O=C1c2ccccc2Sc2cc(-c3noc(-c4cncc(Br)c4)n3)ccc2N1C1CCCC1,i,-0.28
CCc1c(CN2CCC(Cc3ccccc3)CC2)csc1C,i,0.27
CCOc1ccc(NC(=O)Cn2c(C)cc(C)c(S(=O)(=O)c3ccc(Br)cc3)c2=O)cc1,i,0.57
CCN(CC)c1ccc(NC(=O)CN2CCCN(Cc3cc(C)ccc3C)S2(=O)=O)c(C)c1,i,-0.15
CC(C)Nc1nc(N2CCN(C3CCCCC3)CC2)nc2c1cnn2C,i,0.63
CN(C)c1ccc(NC(=O)c2nc(-c3ccccc3)n(-c3ccccc3Cl)n2)cc1,i,-1.15
Cc1cc2n(n1)CCCN2CC(=O)Nc1cc(Cl)ccc1C,i,-0.28
O=S(=O)(c1cc(-c2nnc(C3CC3)o2)cs1)N1CCN(c2ccccc2)CC1,i,0.23
COC(=O)CN1C(=O)CSc2ccc(S(=O)(=O)Nc3cccnc3)cc21,i,1.09
CCCn1c(=O)[nH]c2cc(-c3noc(CN4C(=O)COc5ccc(Cl)cc54)n3)ccc21,i,0.21
CCS(=O)(=O)N1CCCC(c2nc(CNC(=O)C(C)C)cs2)C1 (configuration not stated),i,-1.52
COc1ccc2cc3c(nc2c1)N(S(=O)(=O)c1ccc(C(C)(C)C)cc1)CC3,i,-1.99
Cc1oc2ncn(CC(=O)NC3CCS(=O)(=O)C3)c(=O)c2c1C (configuration not stated),i,-1.15
CCOC(=O)c1[nH]c(C)c(S(=O)(=O)NCCN2CCOCC2)c1C,i,-1.26
COc1ccc(-c2[nH]ncc2C(=O)NCCc2ccc(OC)c(OC)c2)cc1,i,0.62
COc1ccc(Cn2nc3c(S(=O)(=O)N4CCCCC4)cccn3c2=O)cc1,i,0.73
COc1ccccc1N1CCN(C(=O)CN2C(=O)C3CCCCC3C2=O)CC1 (configuration not stated),i,0.03
O=C(CSc1nnc2c3ccccc3nc(-c3ccccc3)n12)NC1CCCC1,i,0.18
O=C(CCCN1C(=O)C(c2ccccc2)Oc2cccnc21)NCc1ccccc1 (configuration not stated),i,-0.96
Cc1cc2c(cc1C)NC1(CCCCCC1)C(=NCc1ccccc1C)N2,i,0.14
Cc1cc(O)ccc1NC(=O)c1cccc(-n2cnnc2)n1,i,-0.16
CCC(C)NC(=O)Cn1cnc2nc(N3CCCC(C(=O)NC)C3)sc2c1=O (configuration not stated),i,0.62
CCCCS(=O)(=O)N1CCc2cc3cccc(C)c3nc21,i,0.01
COc1ccc(S(=O)(=O)N2CCn3cccc3C2c2ccc(F)c(F)c2)cc1OC (configuration not stated),i,2
CCN(Cc1ccccc1)C(=O)c1cc(NC(=O)C(C)C)cnc1N1CCNCC1,i,-1.22
CCOc1ccc2nc(-n3nc(C)c4c3NC(=O)CC4c3cn(CC)nc3C)sc2c1 (configuration not stated),i,0.13
Cc1ccc(Cl)cc1NC(=O)NCc1ccnc(N2CCCCC2)c1,i,0.09
Cc1ccc(CNS(=O)(=O)c2cc(-c3nc(C(C)(C)C)cs3)cs2)o1,i,-0.76
COCCCN1C(=O)c2ccccc2CC1(C)C(=O)NC1CCCCC1 (configuration not stated),i,0.81
COc1cccc(CCNC(=O)CCCn2c(=O)c3cccn3c3ccc(Br)cc32)c1,i,-1.13
O=C(CCc1cn(-c2ccccc2)nc1-c1ccc2c(c1)OCO2)NCCC1=CCCCC1,i,1.77
CCCCCCCCCCCCC/C=C/[C@@H](O)[C@H](CO)NC(C)=O,i,1.22&-0.07
O=C(NCCC1=CCCCC1)c1nc(-n2cnnc2)ccc1Br,i,-1.75
O=C(NCc1ccc(F)cc1Cl)c1nnc2ccc(-c3ccccc3)nn12,i,0.67
O=C(Nc1ccc(CCc2nc3ccccc3n2-c2ccccc2)cc1)c1cccnc1,i,-0.23
CCCNS(=O)(=O)c1ccc(OC)c(-c2noc(CC)n2)c1,i,-0.25
COc1ccc(OCC(=O)N2CCN(C(=O)c3cc4cc(Br)ccc4[nH]3)CC2)cc1,i,-0.69
O=C(Nc1ccccc1)OCC(CN1CCCCC1)OC(=O)Nc1ccccc1 (configuration not stated),i,0.82
COc1cccc(-c2ccnc3c(-c4ccc(F)cc4)c(C)nn23)c1,i,-0.45
O=C(Nc1ccc(Cl)cc1)c1nc(Nc2ccccc2)c2ccccc2n1,i,1.52
Cc1cccc(CSc2nc3c(c(=O)[nH]2)C(c2ccc(O)c(O)c2)CC(=O)N3)c1 (configuration not stated),i,1.19
CN(C)c1ccc(CN(CC2CCCO2)C(=O)c2ccc(F)cc2)cc1 (configuration not stated),i,-0.31
Cc1cc(C)cc(NC(=O)NCCn2c(-c3ccncc3)nc3cccnc32)c1,i,-0.06
CCc1ccc(CN2CCn3c(C)nnc3C2)o1,i,-0.06
CCCNC(=O)C1CCN(c2cc(C)nc3c(-c4ccc(OC)c(OC)c4)c(C)nn23)CC1,i,-1.66
CCC1Cn2c(C(=O)N3CCCCC3)cc3c(Cl)ccc(c32)O1 (configuration not stated),i,0.27
CCOC(=O)c1c(Cc2cccc(Cl)c2)[nH]c2c1cc(O)c1ccccc12,i,0.58
CN1CCN(c2ccc(C(=O)O)cc2NS(=O)(=O)c2ccc(Br)cc2)CC1,i,-0.8
CCCCC(=O)Nc1onc2c1CC(C)CC2 (configuration not stated),i,-0.42
COc1ccc(-c2[nH]ncc2C(=O)NCc2cccc(Cl)c2)cc1,i,1.1

Additional results follow.
Results follow in this order: Anaer choline gr, Anaer choline gr early
Cc1cc(C)c(NC(=O)c2cc3c([nH]c2=O)CC(C)(C)CC3=O)c(C)c1
    i, 0.51
Cc1ccc(-c2cc(C(F)(F)F)n3nc(C(=O)NCc4ccc5c(c4)OCO5)nc3n2)cc1
    i, 0.46
Cc1ccc2c(c1)sc1nc(-c3ccc(Br)cc3)cn12
    i, 0.1
COc1cccc(NC(=O)Nc2ccc3nc4n(c(=O)c3c2)CCC4)c1
    i, -1.29
Cc1ccc(C(=O)N2CCCC2)cc1-n1c(C)nc2cccnc21
    i, -2.37
Cc1cccnc1NC(=O)C1CCCN(c2ccc3cc(S(=O)(=O)N4CCCC4)ccc3n2)C1 (configuration not stated)
    i, 0.01
O=C(Cn1c(=O)c2cccnc2n(-c2ccccc2)c1=O)Nc1ccc(F)cc1F
    i, 1.42
Cc1cc2nc3ccc(=[N+](C)C)cc-3sc2cc1N
    i, -0.78
COc1cc(SC)ccc1C(=O)N1CCC(Cc2ccccc2)CC1
    i, -0.15&-0.54
COC(=O)c1cc2ccsc2n1CC(=O)Nc1ccccc1
    i, -1.42
Cc1nnc2n1CCN(Cc1csc3c1CCCC3)C2
    i, 0.36
CCc1ccc(-c2ccc(-n3nc(C)c(S(=O)(=O)N4CCCC4)c3C)nn2)cc1
    i, 0.95
COc1cccc(NC(=O)CCS(=O)(=O)c2ccc3c(c2)NC(=O)CCS3)c1
    i, -0.52
N=C(CC(O)COc1ccccc1-c1ccccc1)N1CCCCC1 (configuration not stated)
    i, -0.37
CCOc1c(N2CCCc3ccccc32)c(=O)c1=O
    i, -1.05
Cc1ccc(O)c(C(CCN(C(C)C)C(C)C)c2ccccc2)c1 (configuration not stated)
    i, 0.53&0.59
CN1CCC(OCCCNc2nc(C3CC3)nc3c2CCC3)CC1
    i, -1
Cc1ccc(CNC(=O)c2ccc3nc4sc5c(c4c(=O)n3c2)CCCC5)cc1
    i, -0.43
O=C(O)c1nccnc1C(=O)Nc1ccc(Br)cc1F
    i, 0.32
COc1ccc(S(=O)(=O)c2c(C)cc(C)n(CC(=O)NCc3ccc4c(c3)OCO4)c2=O)cc1OC
    i, -0.4
O=C(Cn1c(=O)c2cccn2c2cccnc21)N1CCC(Cc2ccccc2)CC1
    i, 0.7
O=C(Cn1c(=O)c2cccn2c2ccccc21)NCCCN1CCC(Cc2ccccc2)CC1
    i, 0.46
O=C(c1nnc(-c2csc(S(=O)(=O)NCCC3=CCCCC3)c2)o1)N1CCCC1
    i, 0.13
CCCCC1C(=O)N(c2ccccc2)N(c2ccc(O)cc2)C1=O (configuration not stated)
    i, 0
COCCCNS(=O)(=O)c1cc(-c2nc(C(C)(C)C)cs2)cs1
    i, -1.21
CN(CCc1noc(-c2ccc(C(=O)N3CCOCC3)cc2)n1)C(=O)C1CC1
    i, -0.67
CCOc1ccc(CC2C(=O)Nc3ccccc32)cc1 (configuration not stated)
    i, 0.16
O=C(Nc1ccc(N2CCOCC2)cc1)C1CCN(c2ccnc(-c3ccc(F)cc3)n2)CC1
    i, -0.68
CC1=C(C(=O)OCC2CCCCC2)C(c2ccccc2C)CC(=O)N1 (configuration not stated)
    i, 1.11
O=c1cc(CNCc2ccccc2)nc2nc(NCc3ccccc3Cl)[nH]n12
    i, -0.3
Cn1nc(COCc2ccccc2)c2c1CCN(S(=O)(=O)c1ccc3c(c1)CCC3)C2
    i, 1.1
CCCCNC(=O)c1cn(C)nc1S(=O)(=O)N1CCC(C)CC1
    i, 0.55
COC(=O)c1ccc(-c2nc3cnccn3c2Nc2ccc3c(c2)OCO3)cc1
    i, 0.41
CC1CCN(C(=O)N2CCC(CN(C)C)CC2)CC1
    i, -2.65
COc1ccc(S(=O)(=O)Nc2cc(C(=O)O)cnc2N2CCC(Cc3ccccc3)CC2)cc1
    i, 0.52
O=c1ccn(-c2cccc(F)c2)nc1-c1nc(-c2ccc(OCc3ccccc3)cc2)no1
    i, 1.17
CCCn1cnc2cc(NCc3ccc(C)cc3)ccc21
    i, -1
COc1cc2c(cc1OC)CN(S(=O)(=O)c1cc(N3C(=O)CCS3(=O)=O)ccc1OC)CC2
    i, -0.19
C=CCSc1nc2c(c(=O)[nH]1)C(c1ccc(O)c(O)c1)CC(=O)N2 (configuration not stated)
    i, 0.18
C(=C\c1nc(-c2ccncc2)no1)/c1ccccc1
    i, 0.95

Some of the entries above in a different format:
Anaer choline gr	Anaer choline gr early	Compound
i	0.13	CCOc1ccc2nc(-n3nc(C)c4c3NC(=O)CC4c3cn(CC)nc3C)sc2c1 (configuration not stated)
i	0.09	Cc1ccc(Cl)cc1NC(=O)NCc1ccnc(N2CCCCC2)c1
i	-0.76	Cc1ccc(CNS(=O)(=O)c2cc(-c3nc(C(C)(C)C)cs3)cs2)o1
i	0.81	COCCCN1C(=O)c2ccccc2CC1(C)C(=O)NC1CCCCC1 (configuration not stated)
i	-1.13	COc1cccc(CCNC(=O)CCCn2c(=O)c3cccn3c3ccc(Br)cc32)c1

The main list resumes, starting 4 compounds before the break.
Results follow in this order: Anaer choline gr, Anaer choline gr early
CCCn1cnc2cc(NCc3ccc(C)cc3)ccc21
    i, -1
COc1cc2c(cc1OC)CN(S(=O)(=O)c1cc(N3C(=O)CCS3(=O)=O)ccc1OC)CC2
    i, -0.19
C=CCSc1nc2c(c(=O)[nH]1)C(c1ccc(O)c(O)c1)CC(=O)N2 (configuration not stated)
    i, 0.18
C(=C\c1nc(-c2ccncc2)no1)/c1ccccc1
    i, 0.95
Cc1ccc(/C=C/c2onc(C)c2S(=O)(=O)N2CCCC(C(=O)N3CCc4ccccc43)C2)cc1 (configuration not stated)
    i, -0.39
Cc1cc(NC(=O)Cn2nc3c4sc(N(C)C)nc4ncn3c2=O)ccc1Br
    i, -0.33
CCCN1CCN(C(=O)C2CCN(c3cnc(N4CCSCC4)nc3)CC2)CC1
    i, 0.58
Cc1sc(-c2cc(C(F)(F)F)on2)cc1S(=O)(=O)NCC(C)c1ccccc1 (configuration not stated)
    i, 0.85
CCOC(=O)c1noc2ncn(CC(=O)Nc3cccc(C)n3)c(=O)c12
    i, 0.55
Cc1ccc(CN2C(=O)C3CCCCC3C2=O)cc1S(=O)(=O)Nc1cccnc1 (configuration not stated)
    i, 0.4
CC(=O)Nc1cccc(N2CC(O)=C(c3nc4ccccc4c(=O)[nH]3)C2=N)c1
    i, -0.51
COCCCN1C(=O)c2[nH]nc(-c3cc(C)ccc3O)c2C1c1ccccc1F (configuration not stated)
    i, 0.85
CN(C)c1cccc(C(=O)Nc2ccc3c(c2)nc(CCc2ccccc2)n3C)c1
    i, 0.42
O=C(Cn1c(=O)[nH]c2c(-c3ccccc3)c[nH]c2c1=O)NCc1cccnc1
    i, 0.7
Cc1ccc(-c2c(NC3CCCC3)c(=O)c2=O)cc1
    i, -0.08
O=S(=O)(c1cc(-c2nnc(C3CCCC3)o2)co1)N1CCC(N2CCCCC2)CC1
    i, 0.5
CCn1cc(CN2CCC(C(=O)NCCCOC)CC2)c2cc(OC)ccc21
    i, -0.82
O=C(CCc1nc(-c2ccc(Cl)cc2)no1)Nc1ccncc1
    i, -0.51
COC(=O)CN1C(=O)CSc2ccc(S(=O)(=O)Nc3cccc(OC)c3)cc21
    i, 0.33
Cn1cc(-c2ccccc2)c2c1c(=O)n(C)c1n[nH]c(=O)n21
    i, 0.02
COc1cc(OC)c(NC(=O)N2CCCN(c3nc4cc(F)ccc4n4cccc34)CC2)cc1Cl
    i, -0.23
C(=C\c1ccccc1)/CSc1nnc2n1CCN2c1ccccc1
    i, 0.27
CCc1noc(Cn2ccnc2C)n1
    i, 0.99
CCC(Sc1nc2ncccc2o1)C(=O)N1CCCc2ccccc21 (configuration not stated)
    i, -0.7
Cc1ccc(-c2ccc(N3CCCC(C(=O)N4CCCC4)C3)nn2)cc1 (configuration not stated)
    i, -0.32
Cc1cc(=O)[nH]c(-n2nc(C)cc2NC(=O)c2ccc(C(C)(C)C)cc2)n1
    i, -0.09
O=C(Nc1ccc(-c2nnc(-c3ccccc3)o2)cc1)Nc1cccc(Br)c1
    i, 0.01
O=C(NCc1ccccc1)C1CCCN(C(=O)C2Sc3ccccc3NC2=O)C1 (configuration not stated)
    i, 0.01

Source: PubChem BioAssay (ICCB-Longwood Screening Facility, Harvard Medical School)

Only part of the results is shown; the hit share may differ from the screen's.
